RE007 growth inh: less growth of the S. pombe RE007 Vpr strain; S. pombe RE007 Vpr strain, BacTiter-Glo ATP luminescence, 24 h; control for the full effect not named in the record; Potency, µM (top dose mostly 92.2 µM), inactives show at the top dose activity change, negative = less growth; 360,000 compounds, 0.21% hits; active = well fitted falling curve with a large enough effect; inconclusive = small, poorly fitted or top-dose-only effect; inactive = no such curve, though single readings can be large or run the other way;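 also: % is scaled to controls: 0 for no effect and ±100 for the full control effect; nearly all actives have a fitted effect of over 50% in size; the assay follows cell death caused by Vpr and the record does not say whether a fall means rescue or toxicity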
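Fission yeast RE007 carrying one integrated HIV-1 vpr copy, seeded at OD 0.01 in PMG+AL medium with 23 nL pinned compound. Grown 24 h at 30 degrees; viability read by BacTiter-Glo luminescence after 5 min.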
2A StopGo: lowers the luciferase signal of an FMDV 2A StopGo reporter; human cells with a luciferase reporter of 2A StopGo recoding; control for the full effect not named in the record; Potency, µM (highest dose often 57.9 µM), inactives show at the highest dose signal change, negative = less light; 410,000 compounds, 1.2% hits; AID 1159524; active = well fitted falling curve with a large enough effect; inconclusive = small, poorly fitted or top-dose-only effect; inactive = no such curve, though single readings can be large or run the other way; tested in HEK293T cells; also: % is scaled to controls: 0 for no effect and ±100 for the full control effect; nearly all actives have a fitted effect of over 45% in size; luciferase light after 4 h
Cruzain inh noDet: inhibitors of Trypanosoma cruzi cruzain without detergent; P25779; purified cruzain, Z-FR-AMC fluorescence, no detergent; Potency, µM, inactives show max response, negative = inhibition, hits mostly inhibitors; 200,000 compounds, 2.3% hits; active = well fitted curve in the direction sought with a large enough effect; inconclusive = small, poorly fitted or top-dose-only effect, or another doubt; inactive = no such curve, though single readings can be large; an effect the other way counts as inactive or inconclusive;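 also: plate controls were enzyme without inhibitor for no effect and buffer without enzyme for full effect; nearly all actives have a fitted effect of over 40% in size; top concentration of the series not given in the record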
Target sequence (P25779 123-467 limits assumed): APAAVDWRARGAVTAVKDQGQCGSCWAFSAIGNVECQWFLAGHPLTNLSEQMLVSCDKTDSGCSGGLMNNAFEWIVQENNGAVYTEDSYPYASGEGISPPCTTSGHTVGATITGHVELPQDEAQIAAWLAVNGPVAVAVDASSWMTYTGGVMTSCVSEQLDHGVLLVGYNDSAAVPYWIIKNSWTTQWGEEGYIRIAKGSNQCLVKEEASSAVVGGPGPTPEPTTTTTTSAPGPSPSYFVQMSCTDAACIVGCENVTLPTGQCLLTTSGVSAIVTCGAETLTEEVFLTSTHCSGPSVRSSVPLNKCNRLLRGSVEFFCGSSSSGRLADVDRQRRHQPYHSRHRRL
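Detergent-free condition (0.00005% Triton X-100) in acetate buffer pH 5.5 with DTT. 1.5 nM enzyme and compound were pre-mixed 15 min, then 2 uM Z-FR-AMC substrate added; reaction progress from fluorescence change between first and third reads (60 s).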
MARV entry inh: inhibitors of Marburg virus binding or cell entry; Marburg virus pseudotyped entry inhibition, cell reporter; control for the full effect not named in the record; about a third of the inactives were read at about 46 µM; Potency, µM (highest dose often 37.8 µM), for the others: top-dose activity change, negative = inhibition, most hits filed as inhibitors; 300,000 compounds, 1.8% hits; AID 540276; active = well fitted inhibition curve with a large enough effect; inconclusive = small, poorly fitted or top-dose-only effect, or effect the other way; inactive = flat fitted curve, though single readings scatter; tested in HEK293 cells; about a fifth of its hits are not listed in these tables; also: % is scaled to controls: 0 for no effect and ±100 for the full control effect; luciferase read-out
NS1 function inh: inhibitors of influenza NS1 protein function; S. cerevisiae slowed by influenza A NS1, growth recovery by OD600; 270,000 compounds, 0.4% hits; Potency, µM (highest dose often 46.1 µM), for the others: top-dose activity, positive = more growth; also: actives are rising curves; nearly all actives have a fitted effect of over 50% in size
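A cell-based growth assay was used: compounds that relieve NS1-induced slow growth of budding yeast raise OD600. Assay medium was yeast nitrogen base with ammonium sulphate and -URA supplement, pH 6.0, with 2% galactose.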
SARS PLpro yeast: inhibitors of SARS-CoV papain-like protease in yeast. 330,000 compounds, 0.19% hits. S. cerevisiae expressing SARS-CoV PLpro, growth rescue; control for the full effect not named in the record. Potency, µM (highest dose often 32.9 µM), inactives show at the top dose activity, positive = growth rescue; also: 0% is about no effect; nearly all actives have a fitted effect of over 55% in size; growth read by luminescence after 48 h
Lassa entry inh: blocks Lassa virus binding to or entry into cells; Lassa virus pseudotype entry inhibition, cell reporter; control for the full effect not named in the record; Potency, µM (top dose mostly 37.9 µM), without a hit: at the highest dose activity change, negative = inhibition, most hits filed as inhibitors; 300,000 compounds, 1.2% hits; AID 540256; active means well fitted inhibition curve with a large enough effect; inconclusive means small, poorly fitted or top-dose-only effect, or effect the other way; inactive means flat fitted curve, though single readings scatter; tested in HEK293 cells; also: % is scaled to controls: 0 for no effect and ±100 for the full control effect; nearly all actives have a fitted effect of over 50% in size; luciferase read-out
Cruzain inh Det: blocks cruzain activity in presence of Triton detergent; 200,000 compounds, 0.43% hits; purified cruzain, Z-FR-AMC fluorescence, 0.01% Triton; Potency, µM, for the others: max response, negative = inhibition, most hits filed as inhibitors; active = well fitted curve in the direction sought with a large enough effect; inconclusive = small, poorly fitted or top-dose-only effect, or another doubt; inactive = no such curve, though single readings can be large; an effect the other way counts as inactive or inconclusive;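 also: plate controls were neutral wells for no effect and buffer without enzyme for full effect; nearly all actives have a fitted effect of over 40% in size; top concentration of the series not given in the record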
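Steps: dispense cruzain (1.5 nM final) in acetate buffer pH 5.5 with DTT and 0.01% Triton X-100; pin-transfer compounds; incubate 15 min RT; add Z-FR-AMC (2 uM final); read fluorescence every 30 s, using the 60 s intensity change.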
* hit, by the source's call; ? = inconclusive; . = no result given; [ ] = remark or other dose. Unless noted, calls follow the shape of the dose curve; as a rule, active means well fitted rising curve with a large enough effect; inconclusive means small, poorly fitted or top-dose-only effect; inactive means no such curve, though single readings can be large or run the other way. Potency is read from the fitted curve at half-maximal effect.

nr	mol	RE007 growth inh	2A StopGo	Cruzain inh noDet	MARV entry inh	NS1 function inh	SARS PLpro yeast	Lassa entry inh	Cruzain inh Det
1	Cn1c(=O)c2[nH]c(N=Nc3ccc(N)cc3N)nc2n(C)c1=O	2.6%	-8.4%	.	.	0.8%	-0.3%	.	.
2	CN(c1ccc(OCC(=O)OCC(=O)Nc2ccccc2)cc1)S(=O)(=O)c1ccc(F)cc1	4.0%	-0.8%	-1.7%	?	-49.2%	14.8%	15.1%	-4.6%
3	CCOC(=O)C1(CCCc2ccccc2)CCN(C(=O)CCN2CCCCC2=O)CC1	7.8%	-16.8%	.	-27.3%[46.1 µM]	-6.8%	-2.1%	?	.
4	c1coc(CNc2c3c(nc4ncnn24)CCCC3)c1	3.1%	-22.0%	5.1%	-7.7%[46.1 µM]	-4.0%	3.7%	7.1%	-0.1%
5	NC(=O)C1(NC(=O)[C@@H]2CC3(CC(c4cccc(NC(=O)[C@@H]5CCC(=O)N5)c4)=NO3)CN2C(=O)c2cnccn2)CC1 (stereo not given in full)	-16.0%	-6.3%	-8.1%	.	-19.1%	19.6%	.	6.0%
6	CC1=CCC2C(=O)N(c3ccc(S(N)(=O)=O)cc3)C(=O)C2C1 (stereo not given)	3.9%	-10.5%	.	18.7%[46.1 µM]	5.3%	-8.3%	12.2%	.
7	O=C(CN1CCN(Cc2cccc(Cl)c2)C1=O)NCc1ccccn1	-6.0%	-21.6%	-2.8%	.	2.1%	4.1%	.	3.1%
8	CC1C(=O)NN=C1C(=O)N/N=C\c1ccc(O)cc1O (stereo not given)	-15.6%	-8.2%	-1.4%	3.5%	7.1%	?	16.4%	-22.9%
9	O=C(Nc1ccccc1)Nc1ccc2c(c1)CCC2	-4.7%	21.9%	.	.	17.2%	-1.1%	.	.
10	CCn1c(C(O)c2cc(OC)ccc2OC)nc2ccccc21 (stereo not given)	-12.7%	-9.4%	.	11.4%	12.5%	5.9%	-5.2%	.
11	COc1ccc(C(=O)NCC(=O)OCC(=O)NC2CCCC2)cc1	-6.6%	-11.1%	.	-10.5%[46.1 µM]	12.0%	1.0%	-11.6%[46.1 µM]	.
12	CN(c1ccc(OCC(=O)Nc2ccc(S(N)(=O)=O)cc2)cc1)S(=O)(=O)c1ccc(F)cc1	9.2%	?	.	?	.	.	2.5%	.
13	CC(Cl)C(=O)c1c[nH]c2ccccc12 (stereo not given)	-7.1%	-12.0%	.	-3.8%[46.1 µM]	.	-1.0%	-9.9%	.
14	O=[N+]([O-])c1ccccc1S(=O)(=O)N1CCN(c2ccccc2)CC1	-7.7%	-12.9%	.	.	-11.0%	-6.2%	.	.
15	O=C(Cn1[nH]c(=O)c2ccccc2c1=O)Nc1ccc2c(c1)CCC2	12.3%	5.8%	4.5%	-24.5%[46.1 µM]	-8.9%	-0.7%	-2.9%	-4.5%
16	CCOc1cc(C(c2c(C)[nH][nH]c2=O)c2c(C)[nH][nH]c2=O)cc(Br)c1OC	13.1%	-3.0%	.	9.0%	2.8%	-1.9%	-10.5%	.
17	COc1ccccc1Nc1ccc2c(O)cc(S(=O)(=O)O)cc2c1	-3.2%	-8.0%	.	?	.	.	-4.0%[46.1 µM]	.
18	COC(=O)Cc1c(C)nc2nc(-c3ccc(OC)cc3)[nH]n2c1=O	10.2%	9.8%	12.6%	-6.8%	8.8%	0.2%	17.5%	-2.0%
19	Clc1ccc(Cl)c(OCCCCN2CCCCC2)c1	-5.8%	-20.8%	.	.	-4.3%	-5.2%	.	.
20	COc1ccc(NC(=O)CCS(=O)(=O)c2cc(Br)cc3c2N(C(C)=O)CC3)c(OC)c1	.	1.4%	-2.1%	.	.	.	3.9%[46.1 µM]	-2.1%
21	CC(C)=CC(=O)OCC(=O)Nc1ccc(F)cc1Cl	-6.9%	-4.0%	9.9%	0.8%	-6.0%	0.8%	4.0%	1.2%
22	Cc1ccc(/C=C2\SC(=S)N(CCCC(=O)Nc3nccs3)C2=O)cc1	3.6%	-23.9%	?	?	9.3%	1.9%	6.4%	-2.2%
23	COCCn1c(SCC(=O)Nc2sccc2C(N)=O)nnc1-c1ccncc1	15.7%	-16.7%	.	9.6%	.	0.7%	-9.7%	.
24	C=CCNC(=S)N/N=C/c1ccc(C)c([N+](=O)[O-])c1	-12.3%	0.0%	-16.4%	?	17.4%	?	?	-11.1%
25	O=C(O)C1CCN(c2ccc([N+](=O)[O-])cc2[N+](=O)[O-])CC1	-3.8%	4.8%	.	1.1%[46.1 µM]	-9.9%	-3.1%	4.4%	.
26	COc1ccccc1CNC(=O)CSc1ncc2c(n1)-c1ccccc1N(Cc1ccc(C)cc1)S2(=O)=O	.	-4.5%	-10.4%	-5.3%[46.1 µM]	.	.	-4.9%[46.1 µM]	-2.0%
27	O=C(CN=C1NS(=O)(=O)c2ccccc21)OCC(=O)c1cc(F)ccc1F	6.0%	39.6%[activator]	.	.	-3.9%	-1.0%	.	.
28	COc1ccccc1/C=C/C=N/Nc1cccc(C(=O)O)c1	2.1%	-31.9%	.	?	-43.0%	-1.3%	5.01µM*	.
29	COc1ccc(CNC(=O)Cc2csc3ccccc23)cc1OC	.	-7.7%	18.9%	?	.	.	?	-6.1%
30	Cc1ccc2c(c1)C(c1ccccc1)N(C(=O)c1ccc(F)cc1)CC(=O)N2 (stereo not given)	-6.7%	0.4%	.	?	-4.8%	0.8%	?	.

The final three records of the section before lead into the next:
nr	mol	RE007 growth inh	2A StopGo	Cruzain inh noDet	MARV entry inh	NS1 function inh	SARS PLpro yeast	Lassa entry inh	Cruzain inh Det
28	COc1ccccc1/C=C/C=N/Nc1cccc(C(=O)O)c1	2.1%	-31.9%	.	?	-43.0%	-1.3%	5.01µM*	.
29	COc1ccc(CNC(=O)Cc2csc3ccccc23)cc1OC	.	-7.7%	18.9%	?	.	.	?	-6.1%
30	Cc1ccc2c(c1)C(c1ccccc1)N(C(=O)c1ccc(F)cc1)CC(=O)N2 (stereo not given)	-6.7%	0.4%	.	?	-4.8%	0.8%	?	.
31	CCCC(NC(=O)CNC(=O)C(C)(C)C)C(=O)O (stereo not given)	-7.7%	8.1%	-3.2%	17.1%	5.1%	5.1%	11.7%	3.3%
32	Cc1ccc(CN2C(=O)CN(C3CCCCCC3)C(=O)C2c2ccc(F)cc2)cc1 (stereo not given)	.	-1.0%	3.3%	.	.	.	16.8%[46.1 µM]	4.1%
33	COCCNC(=O)c1ccc(CS(=O)(=O)c2ccccc2C)o1	12.4%	-10.1%	.	8.9%[46.1 µM]	2.3%	9.8%	-9.4%[46.1 µM]	.
34	Cc1ccc(S(=O)(=O)/N=C(/Nc2cccc(C(=O)O)c2)c2ccccc2)cc1	7.8%	-14.5%	.	-0.1%[46.1 µM]	-2.1%	-2.0%	-3.3%[46.1 µM]	.
35	CCOc1ccc(C(=O)N2CCN(Cc3ccccc3)CC2)cc1OCC	1.1%	-29.6%	.	-15.6%	-10.7%	5.4%	-19.9%	.
36	CCCNC(=O)CN1CCC(c2nc3ccccc3[nH]2)CC1	-8.6%	1.2%	.	.	1.4%	18.3%	.	.
37	CC1(C)COC2(OC1)C(=O)N(CN1CCOCC1)c1ccccc12	-11.9%	23.0%	.	20.3%[46.1 µM]	0.0%	1.3%	17.3%	.
38	OC(COCc1ccc(Cl)cc1)CN1CCCCC1 (stereo not given)	-4.3%	-16.9%	.	.	10.4%	4.8%	.	.
39	O=C(c1cc(-c2ccc(Cl)cc2)nc2ccccc12)N1CCC1	16.2%	-10.0%	.	-21.8%	.	-0.1%	-21.5%[46.1 µM]	.
40	Cc1ccn2c(NCc3ccccc3)c(-c3cccs3)nc2c1	?	-1.9%	.	?	-7.3%	-3.8%	?	.
41	CC1(C)Cc2c(C#N)c(SCC(=O)O)nc(N3CCOCC3)c2CO1	2.7%	-0.8%	.	-15.0%[46.1 µM]	.	.	14.2%	.
42	O=C(O)c1ccc(-n2cccn2)c([N+](=O)[O-])c1	8.8%	-13.0%	.	?	0.5%	-0.1%	?	.
43	CC1(C)N=C2C(=[N+]1[O-])CCC/C2=N\O	-1.0%	3.0%	-1.6%	-4.6%	-5.2%	-5.4%	-1.9%	6.3%
44	O=C(N/N=C/c1ccccc1F)c1csc2c1CCCC2	-3.2%	1.2%	26.5%	9.6%	8.7%	-19.8%	11.2µM*	-6.6%
45	Cc1ccc(S(=O)(=O)Nc2cccc3ncccc23)cc1	-3.9%	-11.5%	.	.	-7.7%	-0.7%	.	.
46	CC(NCc1cccs1)c1ccccc1 (stereo not given)	5.7%	0.8%	.	-9.2%	-4.2%	-0.2%	22.7%	.
47	O=C(O)COc1ccc2occ(C(=O)c3ccccc3)c2c1	-22.7%	9.6%	-10.3%	22.5%	0.8%	-13.6%	?	1.8%
48	CCC1=C(c2ccc(C)cc2)S(=O)(=O)N=C1N1CCC(C(=O)Nc2ccccc2F)CC1	.	-18.1%	15.4%	.	.	.	5.4%[46.1 µM]	-5.6%
49	CCCCC(=O)Nc1ccc(C(=O)Nc2cccnc2)cc1	11.7%	0.0%	-3.2%	-3.2%	11.0%	-1.1%	?	-2.6%
50	N#CCCCC1(CCCC#N)OCCO1	-1.9%	-24.9%	.	?	.	.	0.3%	.
51	O=C(NCc1ccncc1)C(=O)NCC1OCCN1S(=O)(=O)c1ccc(Cl)cc1 (stereo not given)	-4.7%	-16.5%	.	25.9%	9.3%	-1.1%	25.1%	.
52	O=C(CN1CCOCC1)Nc1ccc(Cl)cc1	8.5%	-1.2%	.	.	16.7%	-2.4%	.	.

Single records, as listed above. Values in the order: RE007 growth inh | 2A StopGo | Cruzain inh noDet | MARV entry inh | NS1 function inh | SARS PLpro yeast | Lassa entry inh | Cruzain inh Det
COc1ccc(NC(=O)CCS(=O)(=O)c2cc(Br)cc3c2N(C(C)=O)CC3)c(OC)c1 in the list: . | 1.4% | -2.1% | . | . | . | 3.9%[46.1 µM] | -2.1%
CC1=CCC2C(=O)N(c3ccc(S(N)(=O)=O)cc3)C(=O)C2C1 (stereo not given) in the list: 3.9% | -10.5% | . | 18.7%[46.1 µM] | 5.3% | -8.3% | 12.2% | .

Compound activity (PubChem BioAssay)
